ALR inh = human ALR oxidase inhibition via reduced H2O2; actives 3.8% (n = 290,000); inhibition, % (concentration not given with the values); purified ALR, DTT oxidation, H2O2 HRP-luminol luminescence; P55789;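 active = mean and each replicate at 75% or more; inconclusive = only one of the two met; inactive = neither met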;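 also: stock transfer was 7.5 nL into about 7.5 µL; 0% = neutral wells and 100% = wells with inactivated enzyme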
Target sequence (P55789 whole entry, looked up): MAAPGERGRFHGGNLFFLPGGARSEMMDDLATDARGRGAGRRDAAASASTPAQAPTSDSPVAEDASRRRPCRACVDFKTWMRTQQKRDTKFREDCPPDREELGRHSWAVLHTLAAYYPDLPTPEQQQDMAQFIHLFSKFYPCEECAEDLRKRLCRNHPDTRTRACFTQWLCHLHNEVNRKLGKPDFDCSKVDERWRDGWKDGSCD
Ecoli rRNA inh = inhibits bacterial ribosomal RNA function over humanized ribosomes; E. coli WT GFP vs humanized-ribosome RFP mutants, fluorescence, 24 h; active compounds read low; DMSO median 0, no signal -100; GFP signal change (wild-type ribosome), % (test concentration not listed); actives 1.6% (n = 350,000); AID 720706;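 active = significant combined selectivity score with lowered wild-type GFP, culture density cut under 30%, mutant RFP and density less affected; inactive = any of these conditions unmet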; also: one replicate is shown; some compounds called inactive have numbers as strong as hits
MLL AF4-AF9 inh = inhibitors of human MLL-AF4/AF9 interaction. P42568. AlphaScreen, biotin-AF4 peptide binding to FLAG-AF9. inhibition, % at 10 µM. actives 0.47% (n = 350,000). AID 651704;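 active = every replicate reaching a set inhibition limit, whatever the replicate mean, cut at about 25% in these data; inconclusive = mean inhibition reaches that limit but some replicates miss it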;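 also: 0% = plate neutral control median and 100% = total signal loss; the record names both 10 and 1 µM as test concentration; the first replicate is given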
Target sequence (P42568 whole entry, looked up): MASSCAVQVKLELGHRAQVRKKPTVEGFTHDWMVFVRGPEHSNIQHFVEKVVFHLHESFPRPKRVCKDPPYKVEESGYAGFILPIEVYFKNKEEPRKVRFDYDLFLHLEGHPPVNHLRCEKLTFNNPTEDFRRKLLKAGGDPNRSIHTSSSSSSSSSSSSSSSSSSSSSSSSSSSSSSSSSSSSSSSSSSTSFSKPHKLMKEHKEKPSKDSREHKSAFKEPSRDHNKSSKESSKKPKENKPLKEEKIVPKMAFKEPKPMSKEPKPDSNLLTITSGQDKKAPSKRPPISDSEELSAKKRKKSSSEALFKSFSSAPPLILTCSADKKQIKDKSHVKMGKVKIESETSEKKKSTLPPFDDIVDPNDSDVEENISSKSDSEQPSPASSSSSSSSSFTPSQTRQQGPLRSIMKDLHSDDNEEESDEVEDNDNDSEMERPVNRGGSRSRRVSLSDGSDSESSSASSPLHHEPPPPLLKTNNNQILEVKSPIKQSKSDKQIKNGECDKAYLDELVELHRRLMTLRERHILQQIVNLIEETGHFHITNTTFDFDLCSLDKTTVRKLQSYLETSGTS
FGF22 binding = shifts melting point of recombinant human FGF22 | Q9HCT0 | recombinant FGF22 thermal shift, SYPRO orange fluorescence; percent of sucrose octasulfate shift, DMSO zero | calls only at 9.99 µM | actives 1.5% (n = 340,000);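 active = melting point raised past a set limit in the mean and every replicate; inconclusive = no clear call; three in four hits are not shown here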
Target sequence (Q9HCT0 whole entry, looked up): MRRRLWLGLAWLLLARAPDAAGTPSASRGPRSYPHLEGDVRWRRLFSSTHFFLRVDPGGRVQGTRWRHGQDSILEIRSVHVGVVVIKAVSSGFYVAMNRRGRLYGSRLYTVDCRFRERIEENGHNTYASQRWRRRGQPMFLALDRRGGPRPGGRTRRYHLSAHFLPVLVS
HNF4A DNA FP = change in binding of human HNF4 alpha to DNA. HNF4a-FITC DNA binding, fluorescence polarization, 1 h. activity change, % at 10 µM. actives 0.3% (n = 360,000). AID 1224865; in the data active = activity change above about 30%, passing the limit was not always enough;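 also: controls were the assay level and a saturating level of protein; the project sought stronger binding though the title names inhibitors; some compounds called inactive have numbers as strong as hits; positive values seem to mean higher polarization but the record does not say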
Ecoli growth = inhibitors of Escherichia coli growth; OD600, 23 h; active compounds read low; OD600 absorbance (test concentration not listed); actives 0.21% (n = 330,000);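 active = OD600 absorbance below the run mean of sample wells minus 3.6 SD, in any replicate, cut at about 0.56 in these data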;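 also: stock transfer was 300 nL into about 60 µL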
Vif TR-FRET = inhibitors of Vif binding to APOBEC3G peptide, primary screen, biochemical, TR-FRET, GST-Vif 1-94, biotin-A3G peptide, dose response retest (AID 1117319) | actives 0.57% (n = 260,000) | TR-FRET GST-Vif / biotin-A3G peptide binding; higher % means a stronger effect; test concentration not given here; strong numbers were not always called active | one-dose inhibition, %; IC50 in µM for titrated hits;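 active = above the screen mean plus three standard deviations and confirmed in dose response; inconclusive = results disagree or hit not tested in dose response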;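 also: Vif residues 1-94 fused to GST binding biotinylated APOBEC3G peptide 110-148; 0% = full assay without inhibitor and 100% = GST in place of GST-Vif; retest series ran down from 100 µM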
Ecoli rRNA inh OD600 = second read-out of Ecoli rRNA inh, no call of its own (marks repeat the call); OD600 change, %; measured here: OD600 growth;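 optical density of the mix in the first replicate; 0 = DMSO median and -100 = no signal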
Ecoli rRNA inh RFP = also measured in Ecoli rRNA inh; calls as there; RFP signal change, %; measured here: RFP humanized mutant strains;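 first replicate; 0 = DMSO median and -100 = no signal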
An asterisk follows results filed as active; i = inactive; ? = inconclusive; nt = no result given; & = joins results of further samples.

#	ALR inh	Ecoli rRNA inh	Ecoli rRNA inh OD600	Ecoli rRNA inh RFP	MLL AF4-AF9 inh	FGF22 binding	HNF4A DNA FP	Ecoli growth	Vif TR-FRET	SMILES
1	1.6	nt	nt	nt	nt	nt	-2.4	0.684	7.0%	Cc1c(O)c(S(=O)(=O)c2ccccc2)c(=O)n(-c2ccccc2)c1-c1ccccc1
2	3.5	nt	nt	nt	nt	nt	-0.8	0.749	-1.6%	Cc1cc(=O)oc2ccc(OCC(=O)N3CCC(C)CC3)cc12
3	nt	2.9	2.9	0.4	-0.7	i	nt	nt	nt	CCC(=O)Nc1ccc2c(c1)OC[C@H](C)N(Cc1cncnc1)C[C@H](C)[C@@H](OC)CN(C)C2=O
4	-0.2	-2.4	-4.3	1.3	-5.1	i	0.3	0.705	-5.7%	CC(C)Cn1c(N)c(C(=O)COC(=O)CCNS(=O)(=O)c2ccccc2)c(=O)n(C)c1=O
5	?	4.4	0.5	1.4	-1.6	i	0.6	0.683	4.3%	CC(CC(=O)N(C)CC(=O)Nc1ccc(N2CCOCC2)cc1)c1ccccc1 (centres undefined)
6	nt	-2.1	-8.9	0.6	4.4	i	nt	nt	nt	COc1ccc(CN2C[C@@H](C)[C@H](OC)CN(C)C(=O)c3cc(NC(=O)c4nc5ccccc5s4)ccc3OC[C@@H]2C)cc1
7	-11.1	7.7	5.8	16.9	-0.4	i	-0.4	0.718	nt	CCC(C)(C)C1CCc2[nH]nc(C(=O)NCCCNC(=O)OC(C)(C)C)c2C1 (centres undefined)
8	nt	-0.2	-6.5	-0.3	12.1	i	-0.7	0.67	nt	Cc1cc(C)n(C(=O)c2ccc([N+](=O)[O-])cc2[N+](=O)[O-])n1
9	nt	nt	nt	nt	nt	nt	-7.1	0.701	-0.6%	COc1ccc(/C=C/C(=O)CC(O)(c2ccccc2)C(F)(F)F)cc1 (centres undefined)
10	nt	-2.4	-1.9	2.9	2.0	i	nt	nt	nt	Cc1noc(C)c1NC(=O)Nc1ccc2c(c1)C(=O)N([C@@H](C)CO)C[C@@H](C)[C@@H](CN(C)C(=O)NC1CCCCC1)OCCCC[C@@H](C)O2
11	3.7	0.2	-27.2	-4.0	-9.0	i	1.9	0.701	18.0%	COc1ccccc1CCC(=O)OCC(=O)N1c2ccccc2NC(=O)C1(C)C
12	-2.0	nt	nt	nt	nt	nt	1.1	0.704	0.4%	COc1ccccc1CNC(=O)C1CC(c2ccccc2[N+](=O)[O-])=NO1 (centres undefined)
13	-22.1	-13.8	-14.3	7.1	64.3*	i	-2.7	0.705	24.6%	O=C1C(NS(=O)(=O)c2ccccc2)=C(N2CCN(c3ccc(F)cc3)CC2)C(=O)c2ccccc21
14	nt	0.2	6.4	-0.3	-0.4	i	nt	nt	nt	CCS(=O)(=O)Nc1ccc2c(c1)C(=O)N(C)C[C@H](OC)[C@@H](C)CN(C(=O)c1ccc3c(c1)OCO3)[C@H](C)CO2
15	nt	20.9&-2.2	14.6&-1.0	8.8&-2.1	-3.9&1.4	i	2.4	nt	2.2%	Cc1noc(C)c1S(=O)(=O)N(C)C[C@H]1OCCCC[C@H](C)Oc2ccc(NC(=O)CCCN(C)C)cc2C(=O)N([C@H](C)CO)C[C@@H]1C
16	nt	5.5	13.6	4.8	0.6	i	nt	nt	nt	CO[C@@H]1CN(C)C(=O)c2ccc(NC(=O)C3CCCC3)cc2OC[C@@H](C)N(C(=O)c2ccccc2)C[C@H]1C
17	nt	-2.5	-9.5	-0.8	-5.8	i	nt	nt	nt	C[C@@H]1CN([C@H](C)CO)C(=O)Cc2cc(NC(=O)Cc3ccccc3)ccc2O[C@H]1CN(C)S(=O)(=O)c1cccs1
18	-18.8	nt	nt	nt	nt	nt	-0.7	0.664	7.7%	CCOc1ccc(N2C(=O)CC(SCCN)C2=O)cc1 (centres undefined)
19	nt	1.4	3.7	-0.1	-2.1	i	nt	nt	nt	COc1cccc(S(=O)(=O)N[C@@H]2C=C[C@@H](CC(=O)NC3CCC3)O[C@H]2CO)c1
20	-1.0	nt	nt	nt	nt	nt	-0.7	0.696	6.3%	Cc1cc(C)cc(OCCCOc2cccc3cccnc23)c1
21	-0.2	nt	nt	nt	nt	nt	-4.3	0.651	-4.6%	CCOC(=O)/C=C1\NC(=O)C(C)S1 (centres undefined)
22	22.0	nt	nt	nt	nt	nt	-4.1	0.674	5.7%	COC(=O)C(NC(=O)c1ccccc1)=C1C=C(C)OC(C)=C1
23	nt	0.5	2.6	-1.0	-2.1	i	nt	nt	nt	CCCNC(=O)N[C@@H]1CC[C@@H](CCn2cc(-c3cccc(F)c3)nn2)O[C@@H]1CO
24	-4.3	13.3	4.9	4.0	4.3	i	1.4	0.681	-1.4%	COc1ccc(Br)cc1/C=C/c1ccc2cccc(O)c2n1
25	-1.7	9.1	-3.0	10.9	3.6	i	-0.7	0.704	0.1%	COC(=O)C1=C(CSc2nccn2C)NC(=O)NC1c1cc(C)ccc1C (centres undefined)
26	-13.7	nt	nt	nt	nt	nt	2.8	0.733	-2.5%	COc1ccc(C(F)(F)F)cc1N/C=C\c1nnnn1-c1ccccc1
27	nt	-10.1	-4.8	1.6	-0.9	i	nt	nt	nt	C[C@H]1CN([C@@H](C)CO)C(=O)c2cc(-c3ccc(F)cc3)cnc2O[C@@H]1CN(C)C(=O)Cc1ccccc1
28	-2.5	nt	nt	nt	nt	nt	2.3	0.707	1.9%	CC12CCC(C(=O)N(NC(=O)c3cccnc3)C1=O)C2(C)C (centres undefined)
29	-6.7	nt	nt	nt	nt	nt	2.2	0.702	-8.5%	CCOc1ccc(NC(=O)c2ccccc2NC(=O)CN(C)CC(=O)Nc2ccc(C)cc2)cc1
30	nt	7.2	7.7	2.5	-3.0	i	0.5	0.718	14.2%	O=C(COC(=O)/C=C/c1cccc(F)c1)Nc1ccc(Cl)cn1
31	nt	1.6	3.7	1.1	-2.6	i	nt	nt	nt	CN1C(=O)c2cc(NC(=O)C3CCCCC3)ccc2OC[C@H]2O[C@H](CC(=O)NC3CCCC3)CC[C@H]21
32	nt	5.5	-17.0	0.7	-1.5	i	5.2	0.718	-3.3%	O=S(=O)(Nc1ccc(-n2cnnn2)cc1)c1ccc(Cl)s1
33	nt	-1.6	-2.0	-5.9	-2.7	nt	-8.4	0.744	nt	O=C(O)c1[nH]c2ccccc2c1C(c1ccccc1)c1c(C(=O)O)[nH]c2ccccc12
34	-5.9	15.3	7.9	-1.7	-5.4	i	2.5	nt	-4.6%	Cc1ccc(/C=N/NC(=O)c2ccncc2)s1
35	4.3	3.1	-5.7	-0.2	3.2	i	0.0	0.661	-1.0%	CCOC(=O)C1=C(c2ccccc2)Nc2ncnn2C1c1cccc(O)c1 (centres undefined)
36	28.7	nt	nt	nt	0.9	i	-1.0	0.712	nt	CC(NC(=O)COc1ccccc1)C(=O)N1CCN(c2ccc(F)cc2)CC1 (centres undefined)
37	-6.3	-1.2	19.0	8.9	-8.6	i	2.7	0.721	7.3%	Cc1ccc2oc(=O)c3cnn(CC(=O)Nc4ccccc4N4CCN(C)CC4)c3c2c1
38	0.0	nt	nt	nt	nt	nt	-0.9	nt	4.7%	O=C(N/N=C\c1cccc(OC(=O)c2ccco2)c1)c1ccc2c(c1)OCO2
39	nt	4.4	8.2	10.8	-1.2	i	0.3	0.622	-3.2%	CCOC(=O)CC1C(=O)NCCN1C(=O)c1ccc(Cl)cc1Cl (centres undefined)
40	-11.3	nt	nt	nt	nt	nt	0.2	0.681	6.2%	COc1ccc(NC(=O)C(Cc2ccccc2)NC(=O)c2ccco2)cc1OC (centres undefined)
41	-8.8	nt	nt	nt	nt	nt	1.6	0.714	-0.1%	CCCNC(=O)N1CCN(S(=O)(=O)c2ccc(C)cc2)CC1
42	-20.1	4.5	-1.5	0.3	-2.8	i	0.1	0.704	-8.2%	CCNS(=O)(=O)c1ccc(NC(=O)CC(C)c2ccccc2)cc1 (centres undefined)
43	-4.4	nt	nt	nt	nt	nt	-2.2	0.695	nt	CCOC(=O)CSc1nnc(NC(=O)c2cccc([N+](=O)[O-])c2C)s1
44	86.2*	nt	nt	nt	nt	nt	1.2	0.614	29.6%	Cc1cc(NC(=O)c2cccs2)n(-c2ccccc2)n1
45	5.3	nt	nt	nt	nt	nt	3.8	0.678	-9.1%	O=C(c1ccc(C(F)(F)F)cc1)N1CCCCC1
46	nt	7.2	13.6	1.1	-2.1	i	nt	nt	nt	C[C@H]1CN([C@@H](C)CO)C(=O)c2cc(C3=CCCCC3)cnc2O[C@@H]1CN(C)CC1CCCC1
47	-19.8	4.8	-9.5	1.8	0.9	i	0.2	0.648	7.8%	CCCCCCCCCCCCS[C@H]1CS(=O)(=O)C[C@@H]1O
48	-4.2	nt	nt	nt	nt	nt	1.8	0.675	nt	Cc1cc(C)n(-c2ccc(C(=O)O)cc2)n1
49	11.8	2.3	1.8	-0.5	0.8	i	2.2	0.687	-1.3%	COc1ccc(-n2c(SCC(=O)NCC3CCCO3)nc3c(c2=O)SC(C)C3)cc1 (centres undefined)
50	nt	3.1	2.1	0.1	-4.3	i	nt	nt	nt	O=C(N[C@@H]1C=C[C@H](CC(=O)N2CCOCC2)O[C@@H]1CO)c1ccccn1
51	-1.1	nt	nt	nt	nt	nt	1.1	0.705	8.5%	Cc1ccc(C(=O)NC(=S)Nc2ccccc2C(F)(F)F)c(C)c1
52	nt	4.7	2.0	4.1	3.4	i	-3.4	0.668	-12.3%	Cc1ccc(NC(=O)C2CCN(S(=O)(=O)c3c(C)[nH]c(=O)[nH]c3=O)CC2)cc1
53	-9.6	0.8	-2.0	2.7	-0.2	i	-2.5	0.722	1.2%	CSCC[C@H](NC(=O)Nc1cccc(Br)c1)C(=O)O
54	5.3	3.2	2.0	1.6	-8.6	i	7.9	nt	nt	O=C1NC[C@@H](Cc2cccc3ccccc23)N(CCCCC2CCCCC2)C1=O
55	nt	-13.7	-7.2	5.9	-0.1&-0.9	i	-1.5	nt	7.8%	C[C@H]1CN([C@@H](C)CO)S(=O)(=O)c2ccc(C#Cc3ccccn3)cc2O[C@@H]1CN(C)C(=O)C1CC1
56	-4.3	nt	nt	nt	nt	nt	nt	0.629	2.5%	O=C(Oc1ccc(OC(=O)N2CCCCC2)cc1)N1CCCCC1
57	2.7	nt	nt	nt	nt	nt	1.3	0.732	21.6%	c1ccc(-c2cc3c(nn2)CCc2nonc2-3)cc1
58	-3.7	nt	nt	nt	nt	nt	4.2	0.777	2.0%	COc1ccc(C(=O)Nc2cc(OC)cc(OC)c2)cc1

Assay outcomes (PubChem)

Not all compounds are listed, so the mix of outcomes need not match the whole.
